VDR inh = inhibitors of human vitamin D receptor; VDR-SRC2-3 peptide fluorescence polarization, 2 h; AID 504847; hit rate 0.93% among 400,000; Potency, µM, for the others: max response, negative = inhibition, actives largely listed as inhibitors; P11473; active means well fitted inhibition curve with a large enough effect; inconclusive means small, poorly fitted or top-dose-only effect, or another doubt; inactive means no such curve, though single readings can be large or run the other way; further: series mostly up to about 120 µM
Target sequence (P11473 whole entry, looked up): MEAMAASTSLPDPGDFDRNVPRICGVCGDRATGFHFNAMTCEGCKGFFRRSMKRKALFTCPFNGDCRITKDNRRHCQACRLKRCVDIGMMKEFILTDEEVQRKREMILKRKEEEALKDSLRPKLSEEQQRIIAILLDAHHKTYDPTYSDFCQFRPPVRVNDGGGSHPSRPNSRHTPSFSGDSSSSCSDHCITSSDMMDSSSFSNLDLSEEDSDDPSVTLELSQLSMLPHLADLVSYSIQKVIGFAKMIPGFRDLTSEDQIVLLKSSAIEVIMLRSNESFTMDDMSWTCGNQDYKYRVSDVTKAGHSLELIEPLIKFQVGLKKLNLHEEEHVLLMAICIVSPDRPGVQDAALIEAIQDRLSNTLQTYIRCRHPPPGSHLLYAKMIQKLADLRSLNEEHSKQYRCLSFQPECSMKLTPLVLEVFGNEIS
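Inhibition of the VDR/SRC2-3 peptide interaction is quantified by fluorescence polarization. Compounds (23 nl, pintool) incubate with the reagents for 2 hours at ambient room temperature.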
* = called active by the depositor; ? = inconclusive; & = joins results of further samples; [ ] = remark or other dose. On the % scale 0 is the no-effect control and ±100 the full control effect; potency means the concentration at half of the fitted maximal effect.

SMILES | VDR inh
O=C1CC2(CCCC2)C(=O)N1CN1CCN(S(=O)(=O)c2ccc(F)cc2F)CC1 | -9%
CSc1ccc(S(=O)(=O)N2CCC(C(=O)NCc3ccco3)CC2)cc1 | 5%
CC1(C)CC(=O)C2=C(C1)N(c1ccccc1)C(=O)CC2c1ccc(O)cc1 (centres undefined) | -20%
Cc1cnn(C(=S)NCCc2ccccc2)c1 | -12%
O=C(CCSc1ccccc1)N1CCN(C(=O)c2ccco2)CC1 | 12%
CCC1CN(S(=O)(=O)c2cc(-c3onc(C)c3C)ccc2C)c2cc(Cl)ccc2O1 (centres undefined) | 15%
COc1ccc(-c2[nH]ncc2C=O)cc1OC | -5%
CC(Sc1ccccc1)C(=O)N1CCN(S(=O)(=O)c2ccccc2)CC1 (centres undefined) | -1%
COc1ccc(N2C(=O)CC(N3CCC(O)(c4ccc(Cl)cc4)CC3)C2=O)cc1 (centres undefined) | -3%
COC(=O)CCCCC1SCC2NC(=O)NC21 (centres undefined) | -6%
CCOC(=O)c1[nH]c(C)c(C(=O)OCC(=O)N2c3ccccc3CC2C)c1C (centres undefined) | 3%
O=C(CSc1nc2ccccc2[nH]1)Nc1nc(-c2ccccc2)c(-c2ccccc2)o1 | -3%

Reprinted from the part before: 3 entries; new compounds follow.
SMILES | VDR inh
COC(=O)CCCCC1SCC2NC(=O)NC21 (centres undefined) | -6%
CCOC(=O)c1[nH]c(C)c(C(=O)OCC(=O)N2c3ccccc3CC2C)c1C (centres undefined) | 3%
O=C(CSc1nc2ccccc2[nH]1)Nc1nc(-c2ccccc2)c(-c2ccccc2)o1 | -3%
O=S(=O)(c1cccc(C(F)(F)F)c1)N1CCCC1c1cccnc1 (centres undefined) | 12%
C=CCN(c1ccc(C(=O)Nc2ccc(NC(C)=O)cc2)cc1)S(C)(=O)=O | 35µM*
Cc1ccccc1N1C(=S)NC2c3ccccc3OC1(C)C2C(=O)N(C)C (centres undefined) | -11%
CCc1ccc(-n2c(=O)c3ccccc3n(CC(=O)NCc3ccco3)c2=O)cc1 | 20%
Cc1ccc(/C=N/n2c(-c3ccncc3)n[nH]c2=S)cc1 | -1%
COc1ccc(Nc2ccc(N3C(=O)CC(C)C3=O)cc2[N+](=O)[O-])cn1 (centres undefined) | 7%
COC(=O)Cc1c(C)nc2nc(NCc3ccccc3OC)[nH]n2c1=O | 8%
CCS(=O)(=O)c1ccc(O)c(NC(=O)c2ccc(S(=O)(=O)N3CCCCCC3)cc2)c1 | 8%
O=C(c1cccs1)N(c1cccc(Cl)c1)C1C=CS(=O)(=O)C1 (centres undefined) | 7%
COc1ccc(CCNC(=O)CSCc2ccc(F)cc2)cc1OC | -2%
CCCCN(C)CCN1C(=O)C2C(C(=O)Nc3ccc(Cl)cc3)C3C=CC2(O3)C1C(=O)NC1CCCCC1 (centres undefined) | 11%
COc1ccc(Cl)cc1C(=O)CSc1nnnn1C | -1%
CN(C)CCCNc1c2ccccc2nc2ccccc12 | -8%
CCc1nnc(N2C(=O)c3ccccc3C2(O)c2ccccc2)s1 (centres undefined) | 5%
CC(C)CN1CCN(Cc2nc(C(C)C)cs2)CC1CCO (centres undefined) | -17%
Cc1cc(C)c2oc(C(=O)Nc3ccc(S(=O)(=O)N4CCCCC4)cc3)cc(=O)c2c1 | 3%
O=C(Nc1ccc(N2CCN(C(=O)c3ccccc3)CC2)cc1)c1ccc([N+](=O)[O-])o1 | -12%
Cc1ccc2oc(C(=O)N3CCC(c4nc5ccccc5s4)CC3)c(C)c2c1 | -6%
COc1cc(SC)ccc1C(=O)Nc1ccccc1 | -14%
COc1cccc(CNC(=O)CN2CCC(c3nc4ccc(C)cc4[nH]3)CC2)c1 | -3%
Cc1onc(-c2ccccc2)c1C(=O)N1CCN(C)CC1 | 5%
CN(C)/C=N/c1nc2nccc(-c3ccc(Cl)cc3)n2n1 | -6%
COc1ccc(CC/C(=N\O)C2(O)CCCCC2)cc1 | -7%
CCCCCN(C(=O)CCC(=O)OCC(=O)Nc1cccc(SC)c1)c1c(N)n(CCCC)c(=O)[nH]c1=O | -12%
COc1ccccc1CCC(=O)N(C)C1CCCN(Cc2ccccc2F)C1 (centres undefined) | -7%
Cc1ccc(CNC(=O)Cn2cnc(S(=O)(=O)N3CCC(C)CC3)c2)o1 | 16%
CCCCCCC[N+](CC)(CC)CCCCc1ccc(Cl)cc1 | ?
O=C(Cn1[nH]c(=O)c2ccccc2c1=O)OCC(=O)N1CCc2ccccc2C1 | 3%
COc1ccc2cc3c(N)nn(C(=O)Cc4c[nH]c5ccccc45)c3nc2c1 | -29%
Cc1cc(C)c(-n2nnnc2SCC(=O)c2cccs2)c(C)c1 | 6%
CN(C(=O)c1cccc(NC(=O)Cc2ccc(NC(=O)C3CCN(C(=O)c4ccccc4)CC3)cc2)c1)C1CCCC1 | -18%
O=C(COC(=O)/C=C/c1ccc(Cl)cc1)NC(=O)NCc1ccccc1 | -7%
COC(=O)CCS(=O)(=O)c1ccc(Cl)cc1 | 0%
Cc1cc(OCC(=O)Nc2ccc(F)c(F)c2)nc(C(C)C)n1 | 3%
Cc1ccc(-n2c(C)nc3ccsc3c2=O)cc1 | -11%
O=C(O)/C=C/C(=O)NCCCc1ccccc1 | -15%
CCOc1ccc(N2C(=O)c3[nH]nc(-c4ccccc4)c3C2c2ccc(O)c(OC)c2)cc1 (centres undefined) | 6%
Cc1ccc(/C=C/C(=O)NCCc2ccccc2)o1 | 71µM*
CC(C)C(=O)N1c2nc(-c3ccco3)nn2C2(CCCCC2)[C@@H]2CCCC[C@@H]21 | -7%
Cc1ccc(-n2ncc3c2CC(C)(C)CC3NC(=O)CCc2cccnc2)cc1 (centres undefined) | 8%
CCc1ccc2c(CN3CCc4cc(OC)c(OC)cc4C3)cc(=O)oc2c1 | -16%
Cc1ccc(CN2C(=O)CCC2C(=O)NCCN2CCOCC2)cc1 (centres undefined) | -15%
CCc1sc(NS(C)(=O)=O)nc1-c1ccccc1 | -9%
COC(=O)c1c[nH]n2c(=O)cc(C)nc12 | -12%
COc1ccccc1CN1CCCC2(CCN(C(=O)c3csnn3)CC2)C1 | -6%
CCOc1ccc2nc(-c3ccccc3)[nH]c2c1 | 4%
COc1cccc(C(=O)NC(=S)Nc2ccc3c4c(cccc24)CC3)c1 | -7%
Cc1nc2ccccn2c1-c1ccnc(=S)[nH]1 | ?

Compounds listed so far with a thiophene ring, fused or not:
SMILES | VDR inh
O=C(c1cccs1)N(c1cccc(Cl)c1)C1C=CS(=O)(=O)C1 (centres undefined) | 7%
Cc1cc(C)c(-n2nnnc2SCC(=O)c2cccs2)c(C)c1 | 6%
Cc1ccc(-n2c(C)nc3ccsc3c2=O)cc1 | -11%

The list continues.
SMILES | VDR inh
Cc1ccccc1C(=O)NC(=S)Nc1ccc(N2CCOCC2)cc1 | 24%
CCN(CC)C(=O)CC(c1cc(OC)c(OC)c(OC)c1)c1c(OC)cc(OC)c2c(-c3ccccc3)cc(=O)oc12 (centres undefined) | -5%&-19%
CCn1c(/C=C/c2ccc(O)cc2)nc2ccccc2c1=O | -19%
CC1CCN(C(=O)C2CCCN(c3ncnc4c3nc3n4CCCCC3)C2)CC1 (centres undefined) | -18%
CC1(C)C(=O)Nc2ccccc2N1C(=O)COC(=O)Cc1ccc(Cl)c(Cl)c1 | -16%
COc1cc(Br)c(Br)c(Br)c1N | 32%[activator]
Cc1ccc(CN(C(=O)COc2c(C)cccc2C)C2CCS(=O)(=O)C2)o1 (centres undefined) | 24%
Cc1nc2ccccc2c(=O)n1/N=C/c1cc(Br)ccc1O | 0%
CCOC(=O)[C@H]1[C@H]2COc3ccc(C)cc3[C@@H]2N2C(=O)c3ccc(C)cc3NC(=O)[C@@]12C | -8%
C=CCN1C(=O)C(CC(=O)O)SC1=Nc1ccc(N=Nc2ccccc2)cc1 (centres undefined) | -13%
c1ccc(N2CCN(c3ncnc4[nH]ncc34)CC2)cc1 | -1%
COc1ccccc1C(=O)NC(=S)Nc1ccc(NC(=O)c2ccco2)cc1 | -2%
Cc1cccc(CNC(=O)C2CCC(=O)N(C3CCCCCC3)C2)c1 (centres undefined) | 1%
NS(=O)(=O)c1ccc(NC(=O)COC(=O)c2cn(-c3ccccc3)nc2-c2ccc(F)cc2)cc1 | -2%
N#Cc1ccccc1NC(=S)Nc1ccc(F)cc1 | 8%
O=C(NCC1CCCO1)c1cccc(NS(=O)(=O)c2ccccc2)c1 (centres undefined) | 9%
COCCNC(=O)c1ccccc1NC(=O)CN(c1ccc2c(c1)OCO2)S(C)(=O)=O | -18%
O=C(NCCN1CCOCC1)c1ccccc1-c1ccccc1 | 22%
S=c1[nH]cc(Oc2ccc(Cl)cc2Cl)c(=S)[nH]1 | -26%
CC(C)(O)[C@@H]1CC(=O)[C@]2(C)[C@H](CC[C@@]3(C)[C@H](c4ccoc4)OC(=O)[C@H]4O[C@]432)[C@@]1(C)/C=C\C(=O)O | 10%
Cc1cc(C)cc(C(=O)NC(=S)Nc2ccc(-c3cc4ccccc4oc3=O)cc2)c1 | 3%
CC12CCC(C(=O)N(CC(O)CN3CCN(Cc4ccccc4)CC3)C1=O)C2(C)C (centres undefined) | 6%
CCCCc1c(C)nc2c(OC)cccc2c1SCCC(=O)O | ?
CN(C)CCCNc1nc2sc3c(c2c(=O)n1CCc1ccccc1)CCCCC3 | -8%
COc1cc(NC(=O)Nc2cccc3cccnc23)cc(OC)c1OC | -29%
COc1ccc([C@H]2/C=C\CN(C(=O)c3ccc(C)cc3)[C@@H](C)C(=O)N2Cc2ccc(F)cc2)cc1 | -8%
COc1ccc(/C=N/NC(=O)CCOc2ccccc2C)cc1OC | -5%
Cc1noc(-c2ccc(NCc3ccccc3)c([N+](=O)[O-])c2)n1 | 1%
COc1cc(-c2nnc(-c3ccncc3)o2)ccc1OCc1ccccc1 | 0%
Cc1ccc(NC(=O)c2ccc(CSc3nnc(C)s3)cc2)cc1 | 21%
Cc1nc(Cc2nnc(SCC(=O)Nc3c(C)cccc3C)o2)cs1 | -8%
Cc1ccccc1Cn1cnc2nc3c(cc2c1=O)CC(C)CC3 (centres undefined) | -4%
CCOc1ccccc1NC(=O)CSCC(=O)Nc1ccccc1 | 2%
CCN(CC)CCOc1ccc2c(c1)C(=NNC(=O)c1ccccn1)c1cc(OCCN(CC)CC)ccc1-2 | -16%
CCOc1ccccc1NC(=O)C1=C(C)Nc2ncnn2C1c1cccs1 (centres undefined) | -4%
O=C(Nc1ccccc1)NC1(C(=O)NCc2ccc3c(c2)OCO3)CCCCC1 | -3%

Reprinted at random: four records from the list, in no set order.
SMILES | VDR inh
Cc1ccc(/C=C/C(=O)NCCc2ccccc2)o1 | 71µM*
Cc1ccccc1N1C(=S)NC2c3ccccc3OC1(C)C2C(=O)N(C)C (centres undefined) | -11%
CC1(C)CC(=O)C2=C(C1)N(c1ccccc1)C(=O)CC2c1ccc(O)cc1 (centres undefined) | -20%
O=C1CC2(CCCC2)C(=O)N1CN1CCN(S(=O)(=O)c2ccc(F)cc2F)CC1 | -9%

(continued)
SMILES | VDR inh
Cn1c(N)c(C(=O)CSc2nnc(-c3c[nH]c4ccccc34)n2C2CC2)c(=O)[nH]c1=O | 12%
CCCCNC(=O)CCn1c(=O)c2ccccc2n(CC(=O)NCCc2ccc(OC)c(OC)c2)c1=O | 8%
CC(C)c1ccc(OCC(=O)N2CCCCCC2)c(Br)c1 | 3%
Cc1cc(NC(=O)c2cnn3c(C(F)F)cc(C4CC4)nc23)no1 | 6%
O=C1CCC[C@@H]2Cc3nc4cc5c(cc4cc3[C@@H]3CCN1[C@H]23)OCO5 | -19%
CC1(C)OC(=O)NC1=O | 1%&8%
O=C(CNC(=O)c1ccc(F)cc1)c1ccccc1 | -14%
Cc1ccc(-c2cn(CCC(=O)O)c(-c3ccc(Cl)nc3)n2)cc1 | -14%
Cc1ccc(C(=O)Nc2c(C(=O)NC(C)(C)C)oc3ccccc23)cc1 | 13%
CCC(c1nnnn1Cc1ccccc1)N1CCN(C(=O)c2ccco2)CC1 (centres undefined) | -3%
NS(=O)(=O)c1ccc(NC(=O)Nc2ccc(S(N)(=O)=O)cc2)cc1 | 7%
Cc1ccsc1C(=O)N1CC(=O)Nc2ccccc21 | 2%
COc1cc(C2c3c(oc4c(C)cc(C)cc4c3=O)C(=O)N2Cc2cccnc2)ccc1O (centres undefined) | -2%
CC1CCCN(C(=O)c2ccc(CSc3nc4ccncc4n3Cc3ccccc3)cc2)C1 (centres undefined) | 21%
COc1ccccc1NC(=O)c1ccc(NC(=O)COC(=O)c2ccc(O)cc2)cc1 | 2%
COc1cc(CNC(C)(C)CO)cc(Br)c1OCc1ccc(Cl)cc1Cl | -7%
Cc1c(Cl)cccc1NC(=S)N1CCc2ccccc2C1 | -4%
O=C(CNS(=O)(=O)c1ccc(F)cc1)N1CCN(c2ccc(F)cc2)CC1 | -19%
CC(=O)OCC(=O)Nc1c(C)cc(C)cc1C | -25%
CNc1nc2c(-c3ccc(Cl)cc3)nnn2c2ccccc12 | 23%
Cc1cc(N2CCN(c3cc(Cl)ccc3C)CC2)n2nc(-c3ccccc3)nc2n1 | -9%
Cc1ccc(CNC(=O)c2cnc(N(C)C)nc2)cc1 | 3%
CCOc1ccccc1OCC(=O)NNC(=O)Cn1cnc2c1c(=O)n(C)c(=O)n2C | -21%
Cc1ccc(S(=O)(=O)N2CCN=C2SC(C)c2ccccc2)cc1 (centres undefined) | 0%
COc1ccccc1NC(=O)C1CCCN(c2nnc(C)c3c(C)n(-c4ccccc4)nc23)C1 (centres undefined) | 6%
O=C(c1cnn(C(=O)c2ccccc2)c1)c1ccccc1O | -1%

Molecules above that contain bromine (4):
SMILES | VDR inh
COc1cc(Br)c(Br)c(Br)c1N | 32%[activator]
Cc1nc2ccccc2c(=O)n1/N=C/c1cc(Br)ccc1O | 0%
CC(C)c1ccc(OCC(=O)N2CCCCCC2)c(Br)c1 | 3%
COc1cc(CNC(C)(C)CO)cc(Br)c1OCc1ccc(Cl)cc1Cl | -7%

Source: PubChem (National Center for Advancing Translational Sciences (NCATS))

These rows are one share of the data. The share of hits here may be higher or lower than overall.
